eIF4H inh: human eIF4H binding inhibitors, primary screen, translation initiation inhibitor project, biochemical, uHTS, fluorescence polarization; Eukaryotic translation initiation factor 4H (Homo sapiens), Q15056; eIF4H fluorescence polarization binding assay; inhibition, % at 35 µM; 290,000 tested, 0.94% active; AID 2012, 2009;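 active = 50% or more with normal probe brightness, or confirmed in later tests; about a fifth of its hits are not listed in these tables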;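 note: calls also rest on retests at 20 µM and on dose response follow-up; 0% = protein and probe with vehicle and 100% = probe without protein; strong numbers were not always called active; many hits fall short of the cut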
Env fusion inh: inhibitors of HIV-1 Env-driven cell-cell fusion, primary screen, HeLa-JRFL effector, CEM21 target cells, luciferase; inhibition, % at 12.3 µM; 360,000 tested, 1.1% active;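 active = mean replicate inhibition score of at least 50 and every replicate individually at or above 50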;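 note: 0% = plate neutral controls and 100% = maraviroc near 300 nM; one replicate is shown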
Rce1 inh: yeast Rce1p protease inhibitors, primary screen, biochemical, fluorescence, cell-free homogeneous; CAAX prenyl protease 2 (Saccharomyces cerevisiae (strain ATCC 204508 / S288c)), Q03530; yeast membranes, quenched prenylated peptide cleavage fluorescence; calls only; 290,000 tested, 0.27% active;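 active = fall in fluorescence gain of 50% or more versus controls, with final raw signal at or below 3038400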;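 note: plate controls were neutral control wells for no effect and wells lacking membranes for full effect; tested at 10 µM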
Target sequence (Q03530 whole entry, looked up): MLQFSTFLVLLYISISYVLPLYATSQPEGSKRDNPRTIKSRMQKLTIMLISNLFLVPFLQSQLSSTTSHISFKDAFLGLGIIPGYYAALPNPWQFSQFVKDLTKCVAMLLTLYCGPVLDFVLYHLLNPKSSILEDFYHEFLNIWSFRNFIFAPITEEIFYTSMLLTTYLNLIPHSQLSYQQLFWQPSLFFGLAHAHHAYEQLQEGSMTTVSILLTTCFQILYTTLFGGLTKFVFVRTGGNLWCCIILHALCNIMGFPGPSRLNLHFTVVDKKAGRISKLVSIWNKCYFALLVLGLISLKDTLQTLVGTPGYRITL
MT1-MMP act inh: blockers of MT1-MMP proenzyme processing, primary screen, HT1080 RFP-PRO-GFP cells, GFP/RFP fluorescence; Matrix metalloproteinase-14 (Homo sapiens), P50281; 360,000 tested, 0.061% active; GFP/RFP ratio change, % at 20 µM; GFP/RFP ratio fluorescence, overnight; percent of plate control window, DMSO zero; AID 651647, 2012;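 active = GFP/RFP ratio change of at least 30% with cell ATP level not reduced by more than half and red fluorescence within 50% of control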; note: strong numbers were not always called active
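Test system: HT1080 RFP-PRO-GFP cells; Benchmarks: DMSO and RFP-L50D-GFP cell wells; Timing: cells overnight before dosing, compound overnight, 37 °C, 5% CO2; Compound: one 20 µM compound dose with 1% DMSO; Read-out: GFP/RFP fluorescence ratio.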
Yeast UUG start: modulators of yeast start codon fidelity, primary screen, whole organism, S. cerevisiae, single point, plate reader | S. cerevisiae UUG-firefly luciferase reporter, luminescence/redox ratio | activity score, % at 18.7 µM | 350,000 tested, 0.13% active | AID 602363, 2012;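 active = replicate mean at a twofold rise or more, about +100% in these data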;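 note: firefly luciferase made from a UUG start codon reports start codon fidelity; reporter light over untreated wells divided by growth signal over untreated wells; some hits fall short of that in this replicate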
CSC inhib: cancer stem cell viability inhibitors, primary screen, luminescence. 300,000 tested, 1.1% active. inhibition, % at 7.5 µM. cancer stem cell-like cells viability. AID 2717, 2010;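 active = mean at 75% or more and at least half the replicates too; tested in HMLE shEcad cells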;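 note: 0% = median of negative and 100% = median of positive control wells; the first replicate is given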
PABP polyA inh: PABP poly(A) RNA binding inhibitors, primary screen, biochemical, fluorescence polarization, uHTS | Polyadenylate-binding protein 1 (Homo sapiens), P11940 | inhibition, % at 35 µM | 290,000 tested, 1% active | AID 2014, 2009;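 active = 50% or more with normal probe brightness, or confirmed in later tests; about a fifth of its hits are not listed in these tables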;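 note: calls also rest on retests at 20 µM and on dose response follow-up; controls were probe without protein and protein plus probe with vehicle; some compounds called inactive have numbers as strong as hits; many hits fall short of the cut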
eIF4H inh retest: recorded beside eIF4H inh, whose call it bears; inhibition, %; compound at 20 µM; confirmation average;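 mean of two retest wells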
PABP polyA inh retest: further read-out of PABP polyA inh, marked with its call; inhibition, %; compound at 20 µM; confirmation repeats;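 mean of two retest wells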
MT1-MMP act inh RFP: second read-out of MT1-MMP act inh, no call of its own (marks repeat the call); RFP signal change, %; measured here: RFP expression control read;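 0 = vehicle wells; hits needed this value within 50% of zero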
Starred values were filed as active, the others as inactive; i = inactive; / = no result given; + = active, no number. A portion of the library, so the mix of outcomes need not match the whole.

SMILES	eIF4H inh	Env fusion inh	Rce1 inh	MT1-MMP act inh	MT1-MMP act inh RFP	Yeast UUG start	CSC inhib	PABP polyA inh	others
Cc1ccc(C)c(NC(=O)CN(C)C(=O)c2cc(-c3cccs3)nn2-c2ccccc2)c1	-4	12	i	-2	2	11	-32	-1
O=C(COc1ccccc1/C=C1\SC(=O)NC1=O)Nc1ccccc1	15	-8	i	2	-2	/	21	2
CCOC(=O)C1CCCN(Cc2ccc(OCc3ccccc3)cc2)C1 (configuration not stated)	4	-4	i	4	-1	-10	12	5
COCCn1c(SCC(=O)Nc2cc(C)on2)nc2c(c1=O)SCC2	-11	-23	i	2	-3	-9	2	-4
COc1ccc(-n2nnnc2C(c2cccc(OC)c2OC)N2CCN(C/C=C/c3ccccc3)CC2)cc1 (configuration not stated)	/	-90	/	3	-1	9	/	/
COc1ccc(/C=C(\C#N)C(=O)N2CCOCC2)cc1Br	-4	/	i	-3	1	-12	-8	2
Cc1cc(C)nc(NC2=NCC(=O)N2c2ccc3c(c2)OCCO3)n1	3	/	i	1	0	-18	2	1
COc1cccc(OCC(O)CN2CCN(c3ccc(Cl)cc3)CC2)c1 (configuration not stated)	-11	11	i	1	-5	-3	5	6
CN(C)S(=O)(=O)c1cccc(NC(=O)CCCc2nc3ccccc3c(=O)[nH]2)c1	/	4	i	1	1	/	9	/
Cc1cc(C)cc(-n2c(C)cc(/C=N/NC(=O)CN(c3c(C)cccc3C)S(C)(=O)=O)c2C)c1	-12	/	i	1	-1	-3	2	2
COc1cc(CN2CCCCCC2)c([N+](=O)[O-])cc1OC	4	-10	i	-2	1	-4	4	11
CCCOc1ccc(NC(=O)C2CCCNC2=O)cc1 (configuration not stated)	2	-20	i	4	4	-46	-4	11
Cc1ccc(Cn2c(C3CCCN3c3nc(C)cs3)nc3cc(C(F)(F)F)ccc32)cc1 (configuration not stated)	15	/	i	-14	-12	-16	57	9
Cc1c(C=Nc2ccc(S(=O)(=O)N(C)C)cc2)c(O)[nH]c(=O)c1C#N	/	-10	i	-2	1	-7	3	/
O=C(O)c1ccc(CSc2nc3c(c(=O)[nH]2)CCC3)cc1	/	0	/	4	6	8	/	/
CN1CCN(S(=O)(=O)c2cccc(C(=O)N(Cc3nnc(-c4ccccc4Cl)o3)C3CC3)c2)CC1	13	/	i	0	1	-17	-1	44
Cc1cc(C)c2c3c(sc2n1)C(=O)N(C)CC(=O)N3	4	-38	i	-4	4	-16	-5	-5
CCOC(=O)c1c(NC(=O)CC(C)C)sc(C(C)=O)c1C	-5	27	i	-1	-1	13	-10	9
COCCn1c(SCc2ccc(F)cc2)nc2c1c(=O)[nH]c(=O)n2C	-5	0	i	/	/	12	-17	-3
S=c1[nH]nc(-c2ccco2)n1/N=C/c1ccc(Cl)c(Cl)c1	-4	25	i	/	/	/	6	9
O=[N+]([O-])c1ccc(OCCCCN2CCc3ccccc3C2)cc1	5	-21	i	0	0	0	38	6
Cc1ccc(C(=O)COC(=O)CNC(=O)c2ccco2)cc1	1	-93	i	-2	-1	-6	-11	-7
CC(NC(=O)CSc1nnnn1C1CC1)c1ccccc1Br (configuration not stated)	/	/	/	1	4	-8	-18	/
Cc1ccccc1SCCNC(=O)c1ccccc1Br	-2	-3	i	1	-1	/	/	0
O=C(Nc1ccc(S(=O)(=O)N2CCCC2)cc1)c1cccs1	-4	-2	i	1	0	/	-9	-9
Next part
SMILES	eIF4H inh	Env fusion inh	Rce1 inh	MT1-MMP act inh	MT1-MMP act inh RFP	Yeast UUG start	CSC inhib	PABP polyA inh	others
CCOc1ccc(S(=O)(=O)N2CCCCC2)cc1NC(=O)c1c(CC)noc1C	/	/	i	-5	-6	/	5	/
CCCCCNCC(=O)Nc1cc(C(F)(F)F)ccc1OCCOC	-2	19	i	-1	1	/	-3	-2
O=C(CN1CCOCC1)NNc1c2ccccc2nc2ccccc12	-16	-14	i	4	1	/	-9	-2
Cc1c(Cl)c([N+](=O)[O-])nn1CC(=O)N1CCCc2ccccc21	5	11	+	-1	1	/	/	-1
O=c1ccnc(SCCc2ccc([N+](=O)[O-])cc2)[nH]1	/	-13	i	1	4	/	10	/
CCOC(=S)SCC(=O)Nc1nccs1	-4	4	i	1	3	/	3	-8
CC1COC(=C2C(=O)OCC2C)C1 (configuration not stated)	/	-15	/	7	-1	-4	/	/
COc1ccccc1NC(=O)C1CCCN(S(=O)(=O)c2ccc(-n3cnnn3)cc2)C1 (configuration not stated)	0	-11	i	0	-1	-19	3	8
CCOc1ccc(NC(=O)C2CCCN(c3cnccn3)C2)cc1 (configuration not stated)	/	-5	i	2	0	-15	-1	/
Cc1cc(S(=O)(=O)NC2CCCC2)ccc1-n1cnnn1	14	-5	i	-4	-2	/	7	-1
Cc1c(C)c2c(OCC(=O)Nc3ccc(CCO)cc3)cc3c(c2oc1=O)CCC(C)(C)O3	-15	/	i	4	-1	-28	-5	-9
CCn1cc(/C=N\NC(=O)Cc2ccc([N+](=O)[O-])cc2)c(C)n1	0	/	i	-3	-3	-14	-12	116	eIF4H inh retest=-16;PABP polyA inh retest=-23
CCc1nc2ccc(C(=O)NCCCN3CCN(c4ccccc4F)CC3)cc2nc1CC	-3	27	i	2	0	-13	-4	1
C[C@H]1CN([C@@H](C)CO)C(=O)c2cc(Br)cnc2O[C@H]1CN(C)S(=O)(=O)c1ccccc1F	/	-9	/	2	3	5	/	/
CCn1cc(C(=O)NCc2ccco2)c(=O)c2cc(S(=O)(=O)N3CCCCCC3)ccc21	-8	31	i	-8	-13	1	34	9
COc1cccc(/C=N/NC(=O)c2cc3c(OC)cccc3[nH]2)c1OC	-1	17	i	3	2	-13	13	4
Cc1cc(NC(=O)COC(=O)c2c(Cl)cccc2Cl)no1	/	-17	/	8	4	-15	/	/
O=[N+]([O-])c1ccc(COc2cccc3cccnc23)cc1	13	-51	i	3	0	-16	0	-4
ONC(=Nc1ccc(Cl)cc1)c1ccccc1	7	-56	i	3	-1	-15	12	-3
CNC(=O)c1sc(Nc2cc(C)ccc2C)nc1C	-7	15	i	-4	1	/	5	4
O=C(CCc1nnc2n(Cc3ccccc3)c(=O)c3ccccc3n12)NCCCN1CCCCC1	-3	2	i	4	2	-19	-13	-7
COc1ccc(NC(=O)CSc2nnc(-c3ccco3)c(-c3ccco3)n2)cc1OC	64*	7	i	1	3	-4	9	28	eIF4H inh retest=97*;PABP polyA inh retest=41
O=C(NNc1nc2ccccc2s1)c1ccc(F)cc1	-3	/	i	3	8	-12	21	-11
COCCn1c(SCc2nc3cc(OC)c(OC)cc3c(=O)[nH]2)nnc1-c1ccncc1	-4	/	i	-2	-2	-21	-19	6
CN(C)S(=O)(=O)c1cccc(C(=O)NC(=S)N(CCC#N)Cc2cccnc2)c1	0	2	i	0	0	/	-24	-2

Entries from the list above that have a cyano group, in the order listed:
SMILES	eIF4H inh	Env fusion inh	Rce1 inh	MT1-MMP act inh	MT1-MMP act inh RFP	Yeast UUG start	CSC inhib	PABP polyA inh	others
COc1ccc(/C=C(\C#N)C(=O)N2CCOCC2)cc1Br	-4	/	i	-3	1	-12	-8	2
Cc1c(C=Nc2ccc(S(=O)(=O)N(C)C)cc2)c(O)[nH]c(=O)c1C#N	/	-10	i	-2	1	-7	3	/
CN(C)S(=O)(=O)c1cccc(C(=O)NC(=S)N(CCC#N)Cc2cccnc2)c1	0	2	i	0	0	/	-24	-2

As a short view, 6 of the compounds above:
SMILES	eIF4H inh	Env fusion inh	Rce1 inh	MT1-MMP act inh	MT1-MMP act inh RFP	Yeast UUG start	CSC inhib	PABP polyA inh	others
CNC(=O)c1sc(Nc2cc(C)ccc2C)nc1C	-7	15	i	-4	1	/	5	4
O=C(CCc1nnc2n(Cc3ccccc3)c(=O)c3ccccc3n12)NCCCN1CCCCC1	-3	2	i	4	2	-19	-13	-7
COc1ccc(NC(=O)CSc2nnc(-c3ccco3)c(-c3ccco3)n2)cc1OC	64*	7	i	1	3	-4	9	28	eIF4H inh retest=97*;PABP polyA inh retest=41
O=C(NNc1nc2ccccc2s1)c1ccc(F)cc1	-3	/	i	3	8	-12	21	-11
COCCn1c(SCc2nc3cc(OC)c(OC)cc3c(=O)[nH]2)nnc1-c1ccncc1	-4	/	i	-2	-2	-21	-19	6
CN(C)S(=O)(=O)c1cccc(C(=O)NC(=S)N(CCC#N)Cc2cccnc2)c1	0	2	i	0	0	/	-24	-2

Remaining list, next part
SMILES	eIF4H inh	Env fusion inh	Rce1 inh	MT1-MMP act inh	MT1-MMP act inh RFP	Yeast UUG start	CSC inhib	PABP polyA inh	others
CC(C)(C)C(=O)NC(=S)NCc1ccccc1	-3	3	i	-2	1	/	-10	-4
NCCCCCNC(=O)c1nc[nH]c1C(=O)NCC(=O)OCc1ccccc1	/	-22	/	7	2	9	-16	/
O=C(OCC(=O)N1CCN(C(=O)c2ccco2)CC1)c1cc(=O)c2ccccc2o1	0	/	i	0	2	10	-11	7
CCc1nc2ccc(C(=O)NCCCN3CCCC3=O)cn2c1N(CCC(C)C)CCN(C)C	/	13	/	-2	6	-21	/	/
CN(C)C(CNS(=O)(=O)c1ccc(Br)cc1)c1cccnc1 (configuration not stated)	-1	-64	i	2	4	-4	-6	0
COc1ccc(C(=O)CSc2n[nH]c(=O)[nH]c2=O)cc1	-4	4	i	5	1	/	-2	10
Cc1ccc(-n2nnnc2CNC(=O)C2CC(=O)N(c3ccccc3)C2)cc1C (configuration not stated)	-14	0	i	0	0	-1	-14	1
Cc1ccc(C2=CSC3=NS(=O)(=O)CCN23)cc1C	2	-32	i	4	-1	-10	-14	-2
COCCNC(=O)c1cnn2c(C(F)F)cc(-c3ccc(C)cc3)nc12	-4	-3	i	-10	-6	-18	7	-7
O=C(CSc1ccccn1)Nc1ccc2ccccc2c1	-4	/	i	/	/	/	-5	-3
Cc1cc(/C=C2\SC(=O)NC2=O)c(C)n1-c1ccc(N(C)C)cc1	-1	-18	i	9	1	-12	-2	2
CC1(C)CC(=O)c2cc(OCC(=O)NCC3CCCO3)ccc2O1 (configuration not stated)	-9	-25	i	0	-1	-5	-14	4
COc1ccc2nc(C)cc(Nc3ccc(N4CCN(C)CC4)cc3)c2c1	-1	-81	i	-5	1	-20	22	-10
CN(N=Cc1ccccc1)C(=S)Nc1ccccc1	/	-18	/	0	1	-12	/	/
Cc1cccc(OCCSc2nc(N)cc(N)n2)c1	-1	-99	i	4	1	5	2	-7
CCCn1c2ccccc2c2cnn(CC(=O)N(CC)CC)c(=O)c21	-6	-9	i	-2	-1	1	-3	10
CCOCCCNS(=O)(=O)c1ccc(NC(=O)c2ccc(OC)c([N+](=O)[O-])c2)cc1	-9	9	i	3	-3	/	-1	-22
CCOC(=O)C1=C(C)NC(=O)NC1c1cn(-c2ccccc2)nc1-c1cccs1 (configuration not stated)	-4	/	i	5	1	-4	/	10
COc1cc2c(cc1NC(=O)c1cccc(Br)c1)CCCC2	4	/	i	3	-1	-25	/	3
COc1cc(/C=C/c2[nH]c(=O)[nH]c(=O)c2[N+](=O)[O-])ccc1OCCC(C)C	6	12	i	-1	-10	-31	77*	-10

Screening data: PubChem BioAssay, several laboratories
